GLA inh pH 4.5: qHTS Assay for Inhibitors of Human alpha-Galactosidase at pH 4.5. purified enzyme, 4-MU-alpha-Gal fluorescence, pH 4.5. activity change, negative = inhibition, % at 105 µM. 230,000 tested, under 10 active. AID 1467, 2008; inconclusive = small, poorly fitted or top-dose-only inhibition, or a rising curve; inactive = flat fitted curve, though single readings scatter; no compound was filed as active;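 also: 0% = full activity with enzyme and -100% = basal without enzyme; dose as in the result columns while the protocol names 77 µM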
Target sequence (P06280 whole entry, looked up): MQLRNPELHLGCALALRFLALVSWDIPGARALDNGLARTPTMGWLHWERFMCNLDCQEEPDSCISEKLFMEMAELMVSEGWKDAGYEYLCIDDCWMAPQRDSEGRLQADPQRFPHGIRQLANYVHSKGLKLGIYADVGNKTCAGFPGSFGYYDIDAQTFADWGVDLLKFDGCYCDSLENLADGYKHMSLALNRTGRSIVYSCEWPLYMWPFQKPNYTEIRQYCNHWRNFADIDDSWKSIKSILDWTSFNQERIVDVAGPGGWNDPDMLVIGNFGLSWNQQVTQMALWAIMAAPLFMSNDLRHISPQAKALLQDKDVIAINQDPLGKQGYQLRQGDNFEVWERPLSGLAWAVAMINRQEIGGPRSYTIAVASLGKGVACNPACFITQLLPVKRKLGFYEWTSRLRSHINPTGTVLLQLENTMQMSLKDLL
Rango-impB inh: qHTS Assay for Inhibitors of Rango (Ran-regulated importin-beta cargo) - Importin beta complex formation. Rango CFP/YFP FRET sensor + importin beta, 45 min. Importin subunit beta-1 (Homo sapiens), Q14974. AID 540263, 2011. 340,000 tested, 0.031% active. Potency, µM (titrated, usually from 92.2 µM), for inactives: at the highest dose inhibition of complex formation; active = rising FRET ratio curve, often small or poorly fitted; inconclusive = mostly compound fluorescence or quenching in the first reads; inactive = flat curves in all reads;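 also: potency is read from the fitted curve at half-maximal effect; 0% = DMSO wells and 100% = buffer wells lacking importin beta; nearly all actives have a fitted effect of over 15% in size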
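Inhibition scored from the CFP 486 nm/YFP 530 nm FRET ratio 45 min after adding 0.125 microM importin beta to 50 nM Rango biosensor preincubated 5 min with compound (room temperature, PBS with DTT, Tween-20, BSA). No-importin wells as positive control.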
miR-21 FLuc: qHTS Assay for Modulators of miRNAs and/orActivators of miR-21; 340,000 tested, under 10 active; HeLa miR-21 FLuc reporter, luciferase, 48 h; Potency, µM (series often up to 38.3 µM), without a hit: at the highest dose reporter change, positive = more light; AID 2288, 2010; active = well fitted rising curve with a large enough effect; inconclusive = small, poorly fitted or top-dose-only effect; inactive = no such curve, though single readings can be large or run the other way;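 also: % of control where 0% means no effect; miR-21 action dims this reporter so a rising signal means less miR-21 action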
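HeLa miR-21-FLuc reporter line, endogenous miR-21; 2000 cells/well in DMEM/10% FBS; compound titration up to ~40uM final, 48 h, 37 degree Celsius; luciferase detection reagent, 15 min lysis, CCD luminescence.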
Rango dissoc inh: qHTS Assay for Inhibitors of RanGTP induced Rango (Ran-regulated importin-beta cargo) - Importin beta complex dissociation; Biochemical FRET Rango-importin beta, RanGTP-induced dissociation; Snurportin-1 (Homo sapiens) + GTP-binding nuclear protein Ran (Homo sapiens) + Importin …; 340,000 tested, 0.071% active; Potency, µM (highest dose often 46.1 µM), without a hit: top-dose activity change, negative = inhibition; active means falling FRET ratio curve, often poorly fitted, with flat reads before Ran was added; inconclusive means other falling curves, or compound fluorescence or quenching; inactive means flat or rising ratio curve;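 also: potency is read from the fitted curve at half-maximal effect; % of control where 0% means no effect; nearly all actives have a fitted effect of over 45% in size; -100% = wells without RanGTP and RCC1; the record marks most hits as doubtful in a second field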
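Rango (0.1 uM)–importin beta (0.25 uM) complex; RanGTP-RCC1 trigger; 45 min RT; CFP/YFP FRET read.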
Active calls of the source: *; u = inconclusive; x = no result given; & = joins results of further samples.

SMILES	GLA inh pH 4.5	Rango-impB inh	miR-21 FLuc	Rango dissoc inh
Cc1ccc(C)c(S(=O)(=O)N2CCCOC2CNC(=O)C(=O)NCc2ccco2)c1 (stereo not drawn)	0	0.6%	3%	1%
Cc1nn(CC(=O)Nc2ccc(C(=O)N(C)C)cc2)c(=O)c2ccccc12	-5	3.4%	-1%	-11%
COc1ccc2c(=O)c(-c3ccccc3)c(C)oc2c1	-1	-0.4%	-45%	6%
COc1ccccc1N1CCN(C(=O)c2cc(S(=O)(=O)N3CCCCC3)ccc2C)CC1	x	-1.9%	x	44%
COc1ccc(-n2nnnc2SCC(=O)c2ccc(O)c(O)c2)cc1	-4	0.6%	-15%	-9%
CCCOc1ccc(N2CC(C(=O)Nc3ccccc3F)CC2=O)cc1 (stereo not drawn)	2	0.1%	0%	3%
Cc1cccc(Nc2nc(-c3cccs3)cs2)n1	4	1.2%	-17%	-4%
Cc1ccccc1OCCC(=O)OCC(=O)NCCc1ccccc1	x	1.3%	x	14%
Cc1cccc(N2CCN(C(=O)C3CC(=O)N(c4ccc5c(c4)OCCO5)C3)CC2C)c1 (stereo not drawn)	x	0.3%	x	13%
Cc1cccc2cc(CN(Cc3cccnc3)C(=O)c3cccs3)c3nnnn3c12	9	x	-7%	x
CCN(CC(=O)Nc1c(F)cccc1F)C(=O)/C=C/c1ccc(C)cc1	x	2.4%	x	7%
CC(C)CNC(=O)C(=O)NNC(=O)c1ccco1	-2	0.9%	-1%	-7%
O=C(Cc1ccccc1)Nc1scc(-c2ccccc2)c1C(=O)N1CCOCC1	3	0.2%	2%	3%
O=C(Nc1ccc(-c2nc3cc(Cl)ccc3c(=O)o2)cc1)c1ccco1	3	0.4%	-1%	3%
CN1CC(=O)N(CC(=O)Nc2ccc(Cl)c(C(F)(F)F)c2)C1=O	5	0.9%	-3%	u
Cc1ccc(-c2nnc(Nc3ccc(C(=O)N(C)C)cc3)c3ccccc23)cc1S(=O)(=O)NC(C)(C)CO	-24	-4.1%	-24%	-8%
O=C(COc1ccc(Cl)cc1Cl)NN=C1c2ccccc2-c2ccccc21	3	-1.6%	0%	1%
O=C(CSc1nnc(CNC(=O)C23CC4CC(CC(C4)C2)C3)n1-c1ccc(F)cc1)Nc1ccc(F)cc1	0	2.1%	-3%	8%
CCc1nnc2c3cnn(-c4ccccc4)c3ncn12	1	2.5%	-16%	1%
CC(C)(C)[C@@H]1C=C(C(=O)O)[C@H](c2ccc(Cl)cc2)N1S(=O)(=O)c1ccccc1	x	3.8%	x	19%

Single records (already shown):
Entry for `O=C(Nc1ccc(-c2nc3cc(Cl)ccc3c(=O)o2)cc1)c1ccco1` → GLA inh pH 4.5 = 3; Rango-impB inh = 0.4%; miR-21 FLuc = -1%; Rango dissoc inh = 3%
Entry for `CN1CC(=O)N(CC(=O)Nc2ccc(Cl)c(C(F)(F)F)c2)C1=O` → GLA inh pH 4.5 = 5; Rango-impB inh = 0.9%; miR-21 FLuc = -3%; Rango dissoc inh = u

More structures
SMILES	GLA inh pH 4.5	Rango-impB inh	miR-21 FLuc	Rango dissoc inh
CCOC(=O)N1CCN(C(=O)c2cn(C)c(=O)c3c2c2ccccc2n3C)CC1	5	-8.4%	11%	-2%
CCCCOC(=O)Nc1sc2nc(C)cc(C)c2c1-n1cccc1	-2	-0.6%	-3%	11%
O=C(NCc1ccc(Cl)cc1)C1CCN(S(=O)(=O)c2cccnc2)CC1	x	2.5%	1%	16%
COc1cc(=O)n(C)c2c(OCC3OC(C)(C)OC3(C)C)cccc12 (stereo not drawn)	-3&-1	2.3%	-39%	14%
Cc1ccc2sc(-c3ccc(NC(=O)/C=C\C(=O)O)cc3)nc2c1	29	u	7%	u
Cc1nonc1C1CCCN1C(=O)c1cc(COc2ccc(F)cc2F)on1 (stereo not drawn)	3	-4.3%	-73%	0%
O=C(O)CSCC(=O)NCc1ccc(Cl)cc1	2	3.9%	-1%	15%
CCOc1ccc(C(O)Cc2nc3ccccc3n2C)cc1 (stereo not drawn)	-9	4.4%	-37%	20%
COc1ccc(C(=O)N2CCN(c3c(C)cccc3C)CC2)cc1OC	-3	6.4%	-10%	-16%
C#CCOCCOCCOCCNc1nc(N2CCOCC2)nc(N2CCN(C(=O)[C@H](Cc3ccc(O)cc3)n3cc(CCO)nn3)CC2)n1	x	-0.4%	x	13%
CCc1nnc(NS(=O)(=O)c2ccc(NC(=O)c3ccccc3)cc2)s1	-7	-4.9%	-8%	5%
Cc1cc(NC(=O)c2ccccc2)nc2c1c(=O)oc1ccccc12	-20	1.6%	12%	-12%
N#Cc1ccccc1OCc1cn(CC(=O)c2ccc(O)cc2)nn1	x	3.6%	x	13%
Cc1ccc(C(C(=O)NCc2ccc(F)cc2)N(C(=O)c2csnn2)C2CC2)o1 (stereo not drawn)	0	1.7%	2%	-2%
Cc1cc(C)c2c(=O)[nH]c(=O)n(Cc3ccccc3)c2n1	-5	-1.4%	-1%	5%
Cc1ccc(O)c(-c2[nH]ncc2C(=O)c2ccc(Br)cc2)c1	x	4.6%	7%	-5%
COc1cc(C#N)ccc1OC(=O)C1CCN(C(=O)c2ccc(F)cc2)CC1	x	-2.3%	x	-2%
COc1ccc(-n2nc(C(=O)NCC(=O)NCc3cccc(F)c3)c3ccccc3c2=O)cc1Cl	x	-1.2%	7%	-2%
Cc1cc2[nH]c(=O)c(=O)[nH]c2cc1S(=O)(=O)Nc1cccc(Cl)c1	x	1.3%	-5%	9%
COc1ccc(N(CC(=O)NCc2ccco2)S(=O)(=O)c2ccccc2)cc1	4	-1.9%	-2%	-6%
CCOc1ccc(NC(=O)CN(C2CCCCC2)S(C)(=O)=O)cc1	-3	-0.9%	22%	7%
CCCn1c(SCC(=O)Nc2cccc(C)n2)nc2c1c(=O)n(C)c(=O)n2C	-4	-3.2%	-2%	-5%
CN1CCN(S(=O)(=O)c2cccc(C(=O)N(Cc3nnc(-c4ccc(Cl)cc4)o3)C3CC3)c2)CC1	x	-3.6%	x	23%
O=C(Oc1coc(CSc2ncccn2)cc1=O)c1cccs1	0	1.0%	3%	-4%
CN1CCN(c2ccccc2NC(=O)c2ccc(N3CCOCC3)c([N+](=O)[O-])c2)CC1	x	-2.3%	-17%	15%
COc1ccc(C=NNC(=O)CCCCC(=O)NN=Cc2ccc(OC)cc2)cc1	x	0.9%	x	24%
CC1CCCCN1C(=O)COC(=O)C1CCN(S(=O)(=O)c2c(Cl)cccc2Cl)CC1 (stereo not drawn)	x	0.2%	2%	2%
Cc1cc2c3c(c1C)C1(C(=O)N3C(C)(C)CC2C)C(C#N)=C(N)OC2=C1C(=O)CC(C)(C)C2 (stereo not drawn)	1	5.4%	-4%	0%
Cc1ccc(OC(=O)c2cccnc2)cc1	2	2.2%	0%	-6%
CCOC(=O)Cc1c(C)nc2c(-c3ccc(Cl)cc3)c(C)[nH]n2c1=O	-11	4.0%	1%	-4%
CCCCNC(=O)c1cccc(C(=O)NCCCC)c1	2	-1.8%	-4%	-10%
COc1ccc([C@H]2C(C(=O)O)=C[C@@H](C(C)(C)C)N2S(=O)(=O)c2ccc(C)cc2)cc1OC	x	5.4%	x	25%
CCOc1ccc(S(=O)(=O)N(CC)CC(=O)NCc2cccnc2)cc1	x	-0.1%	0%	10%
CC(C)Oc1cccc(C(=O)NC(=S)Nc2cccc(NC(=O)c3ccccc3Cl)c2)c1	1	1.1%	-8%	-5%
Cc1ccc(C(=O)Nc2cccc(C(F)(F)F)c2)cc1NC(=O)c1nccn1C	1	-0.6%	2%	7%
Cc1cccc(C)c1NC(=O)CN(C)C(=O)c1cccc(S(=O)(=O)N2CCN(c3ccccc3)CC2)c1	x	-1.3%	12%	17%
CCOC(=O)CSc1nnc(NC(=O)C2CC(=O)N(c3ccc(F)cc3)C2)s1 (stereo not drawn)	x	0.0%	0%	-1%
CC(C)CC1NC(=S)N(Cc2ccccc2)C1=O (stereo not drawn)	-3	3.4%	u	-9%
Cc1cccc(N2CCN(Cc3nc(-c4cccc(Cl)c4)oc3C)CC2)n1	-15	0.1%	-1%	7%
CCN1CCN(C(=S)NC(=O)c2cccc(Br)c2)CC1	x	0.4%	x	9%
CC1(C)CC(=O)CC(=Nc2ccc(C(=O)O)cc2)C1	-5	-0.2%	-1%	-10%
Cn1nc(-c2ccccc2)c(-c2nc(-c3ccccc3Cl)no2)c1Cl	-3	-0.2%	1%	14%
CCCn1nnnc1NC(=O)COc1ccc(Br)cc1	8	u	-2%	-10%
Cc1ccccc1Cn1cc(S(=O)(=O)CC(=O)N2CCCCC2)c2ccccc21	4	4.5%	-6%	30%
O=C(COC(=O)c1cnccn1)NCc1ccccc1	-1	2.8%	-5%	-2%
Cc1cccn2c(=O)c3cc(C(=O)NC4CCCC4)n(C)c3nc12	x	-1.1%	-1%	-2%
O=C(c1cccc(S(=O)(=O)N2CCOCC2)c1)N(Cc1nnc(-c2ccccc2Cl)o1)C1CC1	x	4.6%	x	-3%
Nc1cc(Cl)nnc1Cl	7	0.1%	0%	19%
COc1ccc(-c2nn(-c3ccccc3)cc2C(=O)N/N=C/c2ccc([N+](=O)[O-])o2)cc1	-4	3.8%	1%	-4%
CCOc1ccc(C(C)=O)cc1COC(=O)c1ccc2c(c1)NC(=O)CS2	x	-4.4%	x	-3%

(list continues)
SMILES	GLA inh pH 4.5	Rango-impB inh	miR-21 FLuc	Rango dissoc inh
O=S(=O)(c1cnc[nH]1)N1CCN(c2ccc(F)cc2)CC1	-2	-3.7%	-8%	30%
Cc1ccc(C(=O)NCCC2=CCCCC2)cc1S(=O)(=O)N1CCCCC1	x	0.1%	x	16%
Cc1cc(C)c(S(=O)(=O)N2CCOC2CNC(=O)C(=O)NCc2cccnc2)c(C)c1 (stereo not drawn)	3	-2.1%	0%	29%
CCn1cc(C2=NCCO2)c2ccccc21	-3	-0.7%	-3%	13%
CSCCNC(=O)c1cccc(Cl)c1	6	-0.1%	-7%	0%
CCN(CC)S(=O)(=O)c1ccc(N2CCOCC2)c(NC(=O)CCOc2ccccc2)c1	4	0.2%	20%	10%
CC(=O)/C(=N/Nc1cccc(Cl)c1)N1CCOCC1	-26	0.8%	-2%	0%
COCCN(C(=O)COC(=O)C1(C)CC1(Cl)Cl)c1c(N)n(Cc2ccccc2)c(=O)[nH]c1=O (stereo not drawn)	x	0.6%	-4%	4%
COc1ccccc1N(CC(O)CN1CCCC1)S(=O)(=O)c1ccccc1 (stereo not drawn)	x	1.4%	-1%	-2%
CSc1nc(C)c2c(n1)N(c1ccc(C(F)(F)F)cc1)CC2	-15	-0.7%	-5%	-1%
Oc1c(Cl)cc(Cl)cc1C=Nc1ccc(N2CCOCC2)cc1	x	u	-5%	u
COC(=O)c1ccc(Cn2nnc3ccccc3c2=O)o1	-3	-0.6%	-14%	-6%
CCCc1cc(=O)[nH]c(SC(C)C(=O)N2c3ccccc3CC2C)n1 (stereo not drawn)	x	0.3%	x	-4%
CCOC(=O)N1CCN(C(=O)c2cn(CC)c3ccc(S(=O)(=O)N4CCCC4)cc3c2=O)CC1	5	1.0%	2%	-9%
CC12CCC(C(=O)NCc3ccc(Cl)cc3)(OC1=O)C2(C)C (stereo not drawn)	-4	-0.2%	2%	0%
Cc1ccc2oc(=O)c3cnn(CC(=O)N4CCCCCC4)c3c2c1	-25	0.6%	1%	-2%
COc1ccc(/C(N)=N/OC(=O)C2CCC(=O)N2S(=O)(=O)c2ccc(C)cc2)cc1OC (stereo not drawn)	-15	0.1%	-7%	-6%
Nc1ccc(S(=O)(=O)c2cc(O)c3ccccc3c2O)cc1	x	-4.6%	x	12%
CCCCOC(=O)c1cccc(NC(=O)CC)c1	7	-0.7%	-24%	8%

Reprinted from the results shown (3 entries):
SMILES	GLA inh pH 4.5	Rango-impB inh	miR-21 FLuc	Rango dissoc inh
COc1ccc(/C(N)=N/OC(=O)C2CCC(=O)N2S(=O)(=O)c2ccc(C)cc2)cc1OC (stereo not drawn)	-15	0.1%	-7%	-6%
Nc1ccc(S(=O)(=O)c2cc(O)c3ccccc3c2O)cc1	x	-4.6%	x	12%
CCCCOC(=O)c1cccc(NC(=O)CC)c1	7	-0.7%	-24%	8%

This is a subset, so the mix of outcomes need not match the whole.
